# High-throughput results: PubChem, National Center for Advancing Translational Sciences (NCATS)
# Cruzain inh noDet: cruzain (T. cruzi) inhibition without detergent; P25779; purified cruzain, Z-FR-AMC fluorescence, no detergent; Potency, µM, for the others: max response, negative = inhibition, most hits filed as inhibitors; 200,000 compounds, 2.3% hits; AID 1476;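 also: plate controls were enzyme without inhibitor for no effect and buffer without enzyme for full effect; nearly all actives have a fitted effect of over 40% in size; top concentration of the series not given in the record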
# Target sequence (P25779 123-467 limits assumed): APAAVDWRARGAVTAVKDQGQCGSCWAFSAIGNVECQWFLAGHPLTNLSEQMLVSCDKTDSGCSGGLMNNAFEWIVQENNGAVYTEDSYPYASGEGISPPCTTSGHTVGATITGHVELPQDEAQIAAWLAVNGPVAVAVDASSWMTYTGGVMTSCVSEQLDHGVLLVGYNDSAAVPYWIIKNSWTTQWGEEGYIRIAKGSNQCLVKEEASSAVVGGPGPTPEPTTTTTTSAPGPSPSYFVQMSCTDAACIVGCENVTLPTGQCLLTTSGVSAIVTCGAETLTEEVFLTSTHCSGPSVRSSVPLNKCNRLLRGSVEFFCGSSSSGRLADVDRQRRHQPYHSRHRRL
#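 Purified cruzain at 1.5 nM, pre-incubated 15 min with compound at room temperature in 100 mM sodium acetate pH 5.5, 5 mM DTT, 0.00005% Triton X-100. Reaction started with 2 uM Z-FR-AMC; AMC fluorescence increase over 60 s gives rate.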
# LASV entry inh: Lassa virus entry inhibition | Lassa virus pseudotype entry inhibition, cell reporter; control for the full effect not named in the record | Potency, µM (doses to about 37.9 µM), for inactives: at the highest dose activity change, negative = inhibition, most hits filed as inhibitors | 300,000 compounds, 1.2% hits; active means well fitted inhibition curve with a large enough effect; inconclusive means small, poorly fitted or top-dose-only effect, or effect the other way; inactive means flat fitted curve, though single readings scatter; tested in HEK293 cells; also: % is scaled to controls: 0 for no effect and ±100 for the full control effect; nearly all actives have a fitted effect of over 50% in size; luciferase read-out
# SARS PLP yeast: blocks SARS-CoV papain-like protease in a yeast assay; AID 485353; 330,000 compounds, 0.19% hits; S. cerevisiae expressing SARS-CoV PLpro, growth rescue; control for the full effect not named in the record; Potency, µM (titrated, usually from 32.9 µM), for inactives: at the top dose activity, positive = growth rescue; active means well fitted rising curve with a large enough effect; inconclusive means small, poorly fitted or top-dose-only effect; inactive means no such curve, though single readings can be large or run the other way; also: 0% is about no effect; nearly all actives have a fitted effect of over 55% in size; growth read by luminescence after 48 h
# Cruzain Triton: inhibitors of Trypanosoma cruzi cruzain with detergent. P25779. purified cruzain, Z-FR-AMC fluorescence, 0.01% Triton. Potency, µM, without a hit: max response, negative = inhibition, hits mostly inhibitors. 200,000 compounds, 0.43% hits;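 also: plate controls were neutral wells for no effect and buffer without enzyme for full effect; nearly all actives have a fitted effect of over 40% in size; top concentration of the series not given in the record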
#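 Purified cruzain (1.5 nM final) was preincubated with compounds for 15 min at room temperature in 100 mM sodium acetate pH 5.5, 5 mM DTT, 0.01% Triton X-100. Reaction started with 2 uM Z-FR-AMC; AMC fluorescence change over 60 s gave activity.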
# RE007 growth inh: less growth of the S. pombe RE007 Vpr strain | 360,000 compounds, 0.21% hits | S. pombe RE007 Vpr strain, BacTiter-Glo ATP luminescence, 24 h; control for the full effect not named in the record | AID 651644 | Potency, µM (doses to about 92.2 µM), for inactives: at the top dose activity change, negative = less growth; active = well fitted falling curve with a large enough effect; inconclusive = small, poorly fitted or top-dose-only effect; inactive = no such curve, though single readings can be large or run the other way;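 also: % is scaled to controls: 0 for no effect and ±100 for the full control effect; nearly all actives have a fitted effect of over 50% in size; the assay follows cell death caused by Vpr and the record does not say whether a fall means rescue or toxicity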
#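 Fission yeast strain RE007, carrying one chromosomally integrated HIV-1 vpr copy, was seeded at OD 0.01 in PMG+AL medium with 23 nL pinned compound. After 24 h at 30 °C and 99% humidity, viability was read by BacTiter-Glo luminescence.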
# 2A StopGo: lowers the luciferase signal of an FMDV 2A StopGo reporter; human cells with a luciferase reporter of 2A StopGo recoding; control for the full effect not named in the record; AID 1159524; Potency, µM (top dose mostly 57.9 µM), for the others: top-dose signal change, negative = less light; 410,000 compounds, 1.2% hits; active = well fitted falling curve with a large enough effect; inconclusive = small, poorly fitted or top-dose-only effect; inactive = no such curve, though single readings can be large or run the other way; tested in HEK293T cells; also: % is scaled to controls: 0 for no effect and ±100 for the full control effect; nearly all actives have a fitted effect of over 45% in size; luciferase light after 4 h
# NS1 function inh: inhibitors of influenza NS1 protein function | Potency, µM (highest dose often 46.1 µM), for inactives: top-dose activity, positive = more growth | 270,000 compounds, 0.4% hits | S. cerevisiae slowed by influenza A NS1, growth recovery by OD600; active means well fitted rising curve with a large enough effect; inconclusive means small, poorly fitted or top-dose-only effect; inactive means no such curve, though single readings can be large or run the other way; also: nearly all actives have a fitted effect of over 50% in size
#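 Compounds were scored for reversing the slow growth caused by influenza A NS1 in S. cerevisiae, measured by optical density at 600 nm. Assay medium contained 2% galactose at pH 6.0; NS1-free yeast of the same strain were the positive control.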
# Marburg entry inh: Marburg virus entry inhibition; Marburg virus pseudotyped entry inhibition, cell reporter; control for the full effect not named in the record; about a third of the inactives were read at about 46 µM; Potency, µM (top dose mostly 37.8 µM), without a hit: top-dose activity change, negative = inhibition, hits mostly inhibitors; 300,000 compounds, 1.8% hits; AID 540276; active = well fitted inhibition curve with a large enough effect; inconclusive = small, poorly fitted or top-dose-only effect, or effect the other way; inactive = flat fitted curve, though single readings scatter; tested in HEK293 cells; about a fifth of its hits are not listed in these tables; also: % is scaled to controls: 0 for no effect and ±100 for the full control effect; luciferase read-out
# Numbers without * were called inactive; u = inconclusive; x = not tested or not shown; & = joins results of further samples; [ ] = remark or other dose. Unless noted, calls follow the shape of the dose curve; as a rule, active = well fitted curve in the direction sought with a large enough effect; inconclusive = small, poorly fitted or top-dose-only effect, or another doubt; inactive = no such curve, though single readings can be large; an effect the other way counts as inactive or inconclusive. Potency is read from the fitted curve at half-maximal effect.
SMILES,Cruzain inh noDet,LASV entry inh,SARS PLP yeast,Cruzain Triton,RE007 growth inh,2A StopGo,NS1 function inh,Marburg entry inh
CCc1ccc(NC(=O)CS(=O)CC(=O)NC(C)CCc2ccco2)cc1 (stereo unspecified),25.1µM*,1.3%,17.9%,0.4%,21.0%,12.2%,-2.4%,0.2%
COc1ccc(N2C(=O)CC(N3CCN(c4ccc(S(=O)(=O)N5CCCC5)cc4)CC3)C2=O)cc1 (stereo unspecified),u,1.3%,-0.9%,2.5%,-4.2%,u,-18.9%,4.0%&4.0%
CCCc1ccc(C(=O)NNc2cc(Cl)ccc2Cl)cc1,x,u,-1.6%,x,8.9%,4.7%,-5.1%,-30.2%
COc1ccc(/C=N/NC(=O)c2nc(Cl)c(Cl)c(N)c2Cl)cc1COc1ccccc1F,-8.4%,-21.5%,-5.1%,-0.3%,-15.1%,-29.2%,11.6%,u
CCOc1cc(CNc2cccc3[nH]c(C)nc23)ccc1OC,x,-19.9%[46.1 µM],-2.2%,x,-11.6%,0.0%,7.8%,u
CCOC(=O)CNC(=S)N(Cc1ccc(C)cc1)Cc1ccc(C)o1,8.3%,u,7.7%,-7.6%,-7.7%,-8.1%,-1.3%,u
COc1ccc(C(CCN2CCCC2)c2c(O)cc(OC)cc2OC)cc1 (stereo unspecified),x,x,0.5%,x,-20.9%,-12.8%,u,x
CCN(CC(=O)NCc1ccc(Cl)cc1)C(=O)CSCC(=O)Nc1ccc(OC)cc1,x,-0.9%,-6.3%,x,-4.3%,7.8%,x,30.0%
CN(CCO)CC(O)CN(c1ccccc1)c1ccccc1 (stereo unspecified),x,x,0.3%,x,-4.8%,4.8%,1.0%,x
CCc1sc(C(=O)Nc2nccs2)cc1C,x,u,-4.5%,x,-24.0%,-8.5%,-68.6%,u
CCCn1c(=O)n(C)c(=O)c2c(SCC(=O)NC34CC5CC(CC(C5)C3)C4)nc(CC(C)C)nc21,-16.0%,u,24.8%,-3.6%,-6.5%,u,16.3%,u
COc1ccc(Br)c(C(=O)Nc2ccc(F)cc2)c1,x,12.3%[46.1 µM],1.1%,x,25.0%,-14.6%,-3.9%,u
CCCCn1c(SCC(=O)c2ccc(OCC)cc2)nc2cc(S(N)(=O)=O)ccc21,4.4%,-4.9%,-1.3%,1.6%,14.7%,-17.9%,-2.9%,-0.5%
Cc1ccc(CNC(=O)C2CCCN(Cc3cnn(-c4ccccc4)c3-n3cccc3)C2)cc1 (stereo unspecified),11.7%,u,-7.2%,-1.3%,22.2%,-19.8%,-2.6%,u
COc1ccc(-c2cc3nc(-c4ccccc4)cc(N4CCCC(O)C4)n3n2)cc1 (stereo unspecified),x,x,0.4%,x,8.6%,-10.2%,4.5%,x
Cc1cc([N+](=O)[O-])ccc1NC(=O)CSc1nccn1C,-3.1%,9.3%[46.1 µM],x,-2.2%,x,-5.3%,x,u
C/C(=C/CCC(C)[C@H]1CC[C@@]2(C)C3=C(CC[C@]12C)[C@@]1(C)CCC(=O)C(C)(C)[C@@H]1CC3)C(=O)O (stereo partly specified),25.1µM*,-1.2%,-4.1%,-6.1%,1.9%,-17.8%,-0.6%,5.5%
Cc1ccc(S(=O)(=O)c2ccc([N+](=O)[O-])o2)cc1,x,u,x,x,7.94µM*,17.8µM*,x,7.94µM*
COC(=O)CN(C)C(=O)c1ccc(OC2CCN(S(=O)(=O)N(C)C)CC2)cc1,x,-1.1%,6.6%,x,8.6%,34.6%[activator],16.2%,1.8%
CCCC(C(=O)NC1CCCC1)N(C(=O)c1snc(C(N)=O)c1N)c1ccc(F)cc1 (stereo unspecified),x,-15.6%[46.1 µM],10.7%,x,-5.7%,-9.1%,7.1%,u
Cc1cc(C)c2nc(N3CCCC(C(=O)N4CCN(c5ncccn5)CC4)C3)sc2c1 (stereo unspecified),u,-25.9%,-7.8%,-5.8%,13.9%,12.2%,-10.1%,u
CC1CCCN(C(=O)CSc2nnc(-c3ccc(S(=O)(=O)N4CCOCC4)cc3)n2C)C1 (stereo unspecified),-8.0%,28.2%,11.4%,3.2%,12.0%,-14.4%,-2.8%,-5.8%
O=C(CC1SC(=Nc2ccccc2)N(CCc2c[nH]c3ccccc23)C1=O)Nc1ccccc1F (stereo unspecified),u,u,-7.6%,-12.9%,-3.2%,u,6.9%,u
O=C(NCCc1ccccn1)C1CC(=O)N(Cc2ccccc2Cl)C1 (stereo unspecified),-6.0%,17.8%,-7.1%,5.0%,-15.6%,-7.5%,1.3%,25.0%
Fc1ccc(-n2c(Cc3ccccc3)nnc2SCc2nc(-c3ccc(Cl)cc3)no2)cc1,2.6%,u,-8.1%,-4.8%,4.4%,-25.8%,-100.8%,-13.4%
# (cont.)
SMILES,Cruzain inh noDet,LASV entry inh,SARS PLP yeast,Cruzain Triton,RE007 growth inh,2A StopGo,NS1 function inh,Marburg entry inh
Cc1ccc(NS(=O)(=O)c2ccc(NC(=O)C3CC3)cc2)c(C)c1,x,x,0.5%,x,-11.1%,-13.5%,16.8%,x
CC(=O)Nc1nc2n(n1)C(c1ccc(F)cc1)C=C(c1ccc(Cl)cc1)N2 (stereo unspecified),u,29.4%[46.1 µM],x,-3.5%,x,-18.9%,x,u
Cc1ccc(S(=O)(=O)CCc2nc3ccccc3n2CCC#N)cc1,-10.9%,-16.5%,-6.8%,10.4%,6.3%,-26.1%,-1.6%,-2.3%
CCOC(=O)CNC(=O)c1ccccc1,5.5%,22.7%,11.1%,-2.2%,-16.5%,10.7%,0.2%,3.2%
O=C(NCc1ccc(F)cc1)c1noc2c1CCCC2,0.0%,u,-1.9%,3.6%,u,44.0%[activator],-9.3%,4.6%
CC(C)CCNC(=O)C(CC(C)C)N(Cc1ccc2c(c1)OCO2)C(=O)c1snc(C(N)=O)c1N (stereo unspecified),x,-7.1%,-0.8%,x,-8.6%,-3.6%,-1.3%,-16.1%[46.1 µM]
CCC(C)(C)NC(=O)CN(C(=O)c1snc(C(N)=O)c1N)c1ccc2c(c1)OCO2,-6.7%,-12.9%,0.6%,1.3%,1.1%,x,4.7%,1.0%
O=C(C1CCCCC1)N(Cc1cccnc1)c1nc2c(F)cc(F)cc2s1,-2.9%,-1.8%[46.1 µM],x,-7.0%,x,-16.8%,x,x
Cc1ccc(-c2c3c(=O)n(C)c(=O)n(C)c3c3cnc4ccccc4n23)cc1,-5.7%,-18.9%[46.1 µM],x,1.2%,x,-15.9%,x,-12.3%[46.1 µM]
CCN(CC)S(=O)(=O)c1ccc(S(=O)(=O)NCc2cccs2)cc1,x,-11.3%,-3.8%,x,0.2%,17.9%,1.8%,-7.4%[46.1 µM]
Cc1ccc(C(=O)N2CCC3(CC2)Oc2ccc(F)cc2C(=O)C32CC(c3ccccc3)=NO2)s1 (stereo unspecified),x,x,0.4%,x,2.7%,-20.3%,15.2%,x
Cc1cc(NC(=O)c2ccc(Cl)cc2)no1,2.6%,u,-3.8%,5.3%,-1.1%,67.0%[activator],-1.5%,u
CCOC(=O)c1c(C)nc2sccn12,8.0%,14.1%,2.6%,0.3%,13.9%,-11.9%,-15.5%,-0.8%
CSC1=NP(=S)(SC)N2CCCC2=C1C#N (stereo unspecified),1.2%,4.0%,11.5%,5.9%,14.2%,-7.4%,-1.8%,3.5%
O=C(CCN1CCN(c2ccccc2)CC1)Nc1nccs1,-3.5%,2.9%,3.4%,-3.6%,6.3%,-17.1%,-5.9%,u
Cc1ccccc1CC(=O)N1CCCC(CCC(=O)N2CCN(c3ccccn3)CC2)C1 (stereo unspecified),x,-23.8%[46.1 µM],0.3%,x,-2.7%,-29.3%,-1.6%,u
O=c1[nH]c(/C=C\c2cccc(Cl)c2)nc(O)c1[N+](=O)[O-],x,x,24.0%,x,2.6%,-0.6%,-2.4%,x
Cc1ccc2nc(C)cc(N/N=C/c3cccnc3)c2c1,x,1.5%,-1.0%,x,0.0%,1.7%,2.5%,-1.7%[46.1 µM]
COc1cc(OC)c(C(=O)OCC(=O)c2cc(C)n(CC3CCCO3)c2C)cc1OC (stereo unspecified),x,8.9%,-3.0%,x,10.0%,-14.0%,-2.1%,u
COc1ccc(-c2nc(SCC(=O)Nc3c(C)cc(C)cc3C)n[nH]2)cc1,7.3%,u,x,-2.4%,x,2.8%,x,x
CCS(=O)(=O)N1CCN(c2c(Cl)cccc2[N+](=O)[O-])CC1,-6.5%,-21.1%,0.0%,1.7%,-4.0%,u,-0.9%,3.7%[46.1 µM]
CCOC(=O)[C@@H]1[C@H]2COc3cc(OC)ccc3[C@@H]2N2C(=O)N(c3ccc(C)cc3)C(=O)[C@@]12C,x,x,-12.7%,x,-2.8%,7.9%,2.0%,x
O=C(CNc1ccccc1)N/N=C/c1ccc([N+](=O)[O-])cc1,-1.0%,-15.0%,22.6%,-3.5%,-12.7%,-5.1%,3.4%,11.1%
COc1ccc(Br)cc1CN1CCCCCCC1,-2.5%,6.1%,3.0%,-0.5%,-1.9%,x,0.1%,-17.2%
O=C(CSc1ccccn1)N1CCCC(Nc2ccccc2)C1 (stereo unspecified),x,x,9.2%,x,0.4%,-2.5%,-5.2%,x
Nc1ccc[n+](CC(=O)c2ccccc2)c1,x,x,-7.4%,x,3.1%,-1.5%,6.8%,x
CCOc1ccc(-c2cc(C(=O)N3CCN(C)CC3)c3ccccc3n2)cc1,-0.8%,-28.5%,-2.8%,-1.7%,-7.9%,7.7%,-16.1%,u
CCOC(=O)C1C(CC)NC(=S)NC1(C)O (stereo unspecified),x,-1.3%[46.1 µM],-4.4%,x,0.2%,0.6%,x,-7.6%[46.1 µM]
C/C(CC(=O)NCc1ccco1)=N\NC(=O)COc1ccc(C)cc1,-8.0%,u,10.2%,-0.9%,-6.9%,-2.8%,2.0%,u
CN(C)CCC(=O)C(Cc1ccccc1)c1ccccc1 (stereo unspecified),x,u,x,x,3.8%,u,x,u
